Assay outcomes (PubChem BioAssay)
Biofilm kill mix = mixtures killing C. albicans biofilm | AID 1242 | inhibition, % at 7.6 µM | C. albicans biofilm persisters + clotrimazole, fluorescence viability; primary screen in compound mixtures of four per well | 0.02% of 120,000 active;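 active = inhibition above 30.3% in the primary screen of four-compound pools, then above 30% when the compound was retested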;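 note: compounds exposed to preformed 24 h biofilms for 48 h; the number belongs to the whole pool; some results filed as inactive read as strong as hits; inactives centre near 12; 0% = biofilm with clotrimazole alone and 100% = kill control; retested singly at about 60 µM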
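Assay system: C. albicans biofilms / Medium: RPMI/MOPS medium, pH 7.0 / Schedule: biofilm formation 24 h, compound exposure 48 h, 37 °C / Measured by: Alamar Blue fluorescence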
The depositor's hits bear a star. Not all compounds are listed; the hit share may differ from the screen's.

mol | Biofilm kill mix
CN(CC(=O)NC(=O)NCc1ccccc1)Cc1ccc(Cl)cc1 | -5
Cc1[nH]c2ccccc2c1C(O)c1ccncc1 (centres undefined) | 17
Nc1c(NCCN2CCCCC2)c2ccccc2oc1=O | 27
CCN(CC)S(=O)(=O)c1ccc(Cl)c(NC(=O)COC(=O)/C=C/c2cc(OC)c(OC)c(OC)c2)c1 | 21
CC1(C)CC(NC(=O)c2ccccc2C(=O)NC2CC(C)(C)NC(C)(C)C2)CC(C)(C)N1 | 12
Cn1nc(N)nc1N1CCN(c2ccc(F)cc2)CC1 | 15
CC(Oc1ccc(Cl)cc1Cl)C(=O)Nc1ccc(O)cc1 (centres undefined) | 14
Cc1ccc(NC(=O)CN(c2ccccc2)S(=O)(=O)N(C)C)cc1 | 13

Overlap with the part before: 2 entries; new compounds follow.
mol | Biofilm kill mix
CC(Oc1ccc(Cl)cc1Cl)C(=O)Nc1ccc(O)cc1 (centres undefined) | 14
Cc1ccc(NC(=O)CN(c2ccccc2)S(=O)(=O)N(C)C)cc1 | 13
C=CCOC(=O)C1=C[C@H](C2CC2)[C@@H](CCCO)[C@H](OCC)O1 | 13
COc1ccc(CCNC(=O)/C(C#N)=C2\N=C(NC(=O)c3cccs3)c3ccccc32)cc1 | 10
O=C(COC(=O)c1cccnc1)Nc1ccc2c(c1)OCO2 | 3
CCC(C)C(NC(=O)C1CCC(C)CC1)C(=O)NCc1cccnc1 (centres undefined) | 15
FC(F)Oc1ccc(NC(=S)N2CCN(Cc3ccccc3)CC2)cc1 | 12
CCOC(=O)C(Nc1ccc2ccccc2c1)C(=O)OCC | 7
NC(=O)CC(NC(=O)c1ccc(Br)cc1)c1ccc(N2CCC(Br)CC2)c([N+](=O)[O-])c1 (centres undefined) | 11
Cc1ccsc1/C=N/NC(=O)Cc1cccn1C | 5
c1csc(-c2nc(CN3CCSCC3)cs2)c1 | 17
COC(=O)C1CCN(c2ccc(Cl)nn2)CC1 | 9
COc1ccccc1/C=C/C(=O)OCC(=O)Nc1ccccc1Sc1ccccc1 | 9
COc1ccc(S(=O)(=O)Nc2c(F)cccc2F)cc1 | 12
CC(=O)c1ccc(Sc2nnnn2-c2ccccc2)c([N+](=O)[O-])c1 | 22
CC1(C)CC(=O)C2=C(C1)OC(N)=C(C#N)C2c1cccs1 (centres undefined) | -6
CCc1ccccc1NC(=O)CSc1nnc(Cn2cnc3ccccc32)o1 | 7
COC(=O)c1c(O)cc(C(C)(C)C)n(-c2ccccc2)c1=O | 15
Cc1ccc(C2CC(C(F)(F)F)n3nc(C(=O)Nc4c(C)n(C)n(-c5ccccc5)c4=O)cc3N2)cc1 (centres undefined) | 5
Cc1ccccc1S(=O)(=O)Nc1ncnc2scc(-c3ccccc3)c12 | 10
CCCCOCCCNC(=O)N[C@H](C(=O)OC)C(C)CC (some centres undefined) | 24
Cc1cc(C)nc(/N=C(\N)Nc2cccc([N+](=O)[O-])c2)n1 | 22
COC(=O)c1ccc(NC(=O)CSc2nnc(-c3ccccc3)n2C)cc1 | -3
Cc1cccc(N=C2NN=C(c3c[nH]c4ccccc34)CS2)c1 | 13
CCCC(=O)Nc1nnc(SCC(=O)NCc2ccc3c(c2)OCO3)s1 | 11
O=C(c1cc(-c2ccccc2)nc2ccccc12)N1CCc2ccccc2C1 | 16

Molecules from the list above that have four or more nitrogen atoms, in the order listed:
mol | Biofilm kill mix
CC1(C)CC(NC(=O)c2ccccc2C(=O)NC2CC(C)(C)NC(C)(C)C2)CC(C)(C)N1 | 12
Cn1nc(N)nc1N1CCN(c2ccc(F)cc2)CC1 | 15
COc1ccc(CCNC(=O)/C(C#N)=C2\N=C(NC(=O)c3cccs3)c3ccccc32)cc1 | 10
NC(=O)CC(NC(=O)c1ccc(Br)cc1)c1ccc(N2CCC(Br)CC2)c([N+](=O)[O-])c1 (centres undefined) | 11
CC(=O)c1ccc(Sc2nnnn2-c2ccccc2)c([N+](=O)[O-])c1 | 22
CCc1ccccc1NC(=O)CSc1nnc(Cn2cnc3ccccc32)o1 | 7
Cc1ccc(C2CC(C(F)(F)F)n3nc(C(=O)Nc4c(C)n(C)n(-c5ccccc5)c4=O)cc3N2)cc1 (centres undefined) | 5
Cc1cc(C)nc(/N=C(\N)Nc2cccc([N+](=O)[O-])c2)n1 | 22
COC(=O)c1ccc(NC(=O)CSc2nnc(-c3ccccc3)n2C)cc1 | -3
Cc1cccc(N=C2NN=C(c3c[nH]c4ccccc34)CS2)c1 | 13
CCCC(=O)Nc1nnc(SCC(=O)NCc2ccc3c(c2)OCO3)s1 | 11

Next part.
mol | Biofilm kill mix
Cc1c[n+](C)ccc1CC1C([N+](=O)[O-])=C[N-]c2ncnn21 (centres undefined) | 9
Cc1cc(C)c(NC(=S)NCCO)c(C)c1 | 14
Cc1c(CN(C)C(=O)/C=C/c2ccc([N+](=O)[O-])cc2)cnn1C | 25
COc1ccc(-c2csc(-c3cccnc3)n2)cc1C | 16
C/C(N)=C(/C#N)C(=O)CSc1nc2ccccc2c(=O)n1CCCOC(C)C | 17
C=CCN1C(=O)/C(=C\c2ccc(Oc3nc(N4CCOCC4)nc(N4CCOCC4)n3)c(OC)c2)SC1=S | 15
O=C(NCC1CCCO1)c1cc(S(=O)(=O)Nc2ccc(Br)cc2)ccc1Cl (centres undefined) | 2
COc1ccc(/C=N/NC(=O)CN2CCCc3ccccc32)c(OC)c1 | 18
O=C(OCC(=O)N1CCc2ccccc21)c1c2c(nc3ccccc13)CCCC2 | 19
Cc1ccc(SCc2cc(=O)[nH]c(SCC(=O)Nc3cc(Cl)ccc3Cl)n2)cc1 | 16
CC1(C)CC2CC(C)(CN2C(=S)Nc2ccccc2F)C1 (centres undefined) | 2
CCn1c(SCc2ccccc2)nc2c(c1=O)SCC2 | 3
CC(C)Cn1c(N)c(C(=O)COC(=O)c2cc(-c3ccccc3)nc3ccccc23)c(=O)n(C)c1=O | 3
Cc1ccccc1C(CC(=O)c1cccs1)C(C#N)C#N (centres undefined) | 9
Cc1cc2cc(CNC(=O)Nc3ccccc3)ccc2n1C | 16
C[C@@]12CCC=C[C@H]1[C@H](c1ccc3ccccc3c1Br)N(Cc1ccccc1)C2=O | 14
CSc1nc(-c2ccccc2)nc(N2CCOCC2)c1C(C)=O | 10
S=C(c1ccc(Cl)cc1)N1CCN(Cc2ccccc2)CC1 | 14
CC1=CC(=O)CC(C)(C)C1(O)/C=C/C(C)=C/C(=O)O (centres undefined) | 10
COCCn1cnnc1SCC(=O)Nc1cccc(S(=O)(=O)N(C)c2ccccc2)c1 | 15
CN(C)c1cc(Cl)c2nonc2c1N | 7
O=C(/C=C/c1ccco1)N1CCN(c2ncccn2)CC1 | 13
COc1cc(Cn2c(=O)oc3ccc(C)cc32)ccc1OC(C)C | 14
COc1cccc(C(=O)NCC(=O)N/N=C/c2cn[nH]c2-c2ccccc2)c1 | 12
O=C(O)CCCn1c(O)c(C=C2N=c3ccccc3=N2)sc1=S | 18
CC(C)CNC(=O)c1ccccc1NC(=O)/C=C/c1cccc([N+](=O)[O-])c1 | 12
CC(C)(C)c1nnc(NC(=O)c2ccc(Cl)nc2)s1 | 18
COC1=C/C(=C/c2c(N)n3cc(C)sc3nc2=O)C=CC1=O | 11
COc1ccc(C2c3c(oc4ccc(Cl)cc4c3=O)C(=O)N2CCN2CCOCC2)cc1 (centres undefined) | 22
COC/C=C/C1=CC2=CC(=O)C(C)(OC(=O)c3cnc4ccccc4n3)C(=O)C2=CN1c1ccccc1 (centres undefined) | 16
O=C(NC(=S)Nc1ccc(N2CCN(C(=O)c3ccccc3)CC2)cc1)c1cccs1 | -4
O=C(Nc1ccc(NC(=O)c2ccccc2)nc1)c1ccncc1 | 9
COc1cccc(NC(=S)N(CCCN2CCOCC2)C(C)c2cc3cccc(OC)c3o2)c1 (centres undefined) | 19
C#CC1(NC(=O)NC(C)C)CCCCC1 | 15
COc1ccc(-c2nnc(SCc3c(C)noc3C)o2)cc1 | 24
O=C(OCn1nnc2ccccc2c1=O)c1ccc(Br)o1 | -4
Cc1ccn2c(Nc3ccc4c(c3)OCO4)c(-c3ccc(O)cc3)nc2c1 | 13
Nc1ccc(-c2ccc(N)c([N+](=O)[O-])c2)cc1[N+](=O)[O-] | 10
COCCCNC(=O)CCSc1ccc(C)cc1 | 19
Cc1ccc(C(NC(=O)C2CCCCC2)c2c(O)ccc3ccccc23)cc1 (centres undefined) | 19
S=c1[nH]nc(COc2ccccc2)n1/N=C/c1cccnc1 | 20
O=C(O)c1cccc(NS(=O)(=O)c2ccc(-c3ccc(S(=O)(=O)Nc4cccc(C(=O)O)c4)cc3)cc2)c1 | 7
Cc1ccc(OC(=S)Nc2ccc(F)cc2)cc1 | 11
COc1cc(OC)c2c(c1C(CCN1CCOCC1)c1ccc(N(C)C)cc1)OC(=O)CC2c1ccc(N(C)C)cc1 (centres undefined) | 7
Cc1c(NC(=S)N/N=C/c2ccc(Br)cc2)c(=O)n(-c2ccccc2)n1C | 30
CC1(C)CC(C(CC(=O)N2CCCC2)Cc2ccccc2)CCO1 (centres undefined) | 5
Cc1ccc(CN2CCN(Cc3cc(=O)c4ccccc4[nH]3)CC2CCO)o1 (centres undefined) | 4
CCCC(C(=O)NC1=NCCS1)c1ccccc1 (centres undefined) | -4
COc1ccc2c(c1)OC1(C)CC2C(C(=O)c2ccccc2OC)C(=O)N1 (centres undefined) | 18
Cc1nc2[nH]c(=S)n(C)c(=O)c2nc1C | 15
S=C(NCc1ccccc1)NCc1ccccn1 | 20
Cc1cc(-n2c(SCc3ccccc3F)nc3n[nH]c(C)c3c2=N)ccc1Cl | 20
CCOC(=O)Cc1nnc(Nc2ccc(C)cc2)c2ccccc12 | 17
O=C(Cc1ccc(F)cc1)N1CCN=C1SCc1ccc([N+](=O)[O-])cc1 | -4
Nc1nonc1-n1nnc(C(=O)N/N=C/c2cc(Br)ccc2O)c1CSC1=NCCS1 | 31
CN1CN(C)C(c2ccncc2)=C1c1ccncc1 | 21

Remaining list, next part.
compound	Biofilm kill mix
CC(C)c1ccc(/C=C2\NC(=S)N(Cc3cccnc3)C2=O)cc1	10
COc1cccc(/C=N/NC(=O)CNC(=O)COc2cccc(C)c2)c1O	10
N#CC1(NC(=O)COc2ccc3oc4ccccc4c3c2)CCCCC1	24
CC(C)(C)NC(=O)C(c1ccc(O)cc1)N(C(=O)CCC(=O)Nc1nccs1)c1ccc(F)cc1 (centres undefined)	14
CC1(C)CC(NC(=O)COc2ccc([N+](=O)[O-])cc2)CC(C)(C)N1	18
CC(C)(C)c1nc(N)nc(=O)[nH]1	-1
N/C(=N\OC(=O)/C=C/c1ccccc1)c1cccnc1	-1
CC(C)CNC(=O)CCc1nc(-c2ccccc2)no1	16
CC(=O)Nc1ccc(SCC(=O)OCC(=O)NC(=O)NCCC(C)C)cc1	4
Cc1cccc(-n2c(-c3csc4ccccc34)n[nH]c2=S)c1	16
CCOc1ccc(N(CC(=O)NN=C2CCN(C)CC2)S(C)(=O)=O)cc1	22
O=C1NC(NS(=O)(=O)c2ccccc2)(C(F)(F)F)C(=O)N1c1ccc(F)cc1 (centres undefined)	17
Cc1ccc(-n2c(CNC(=O)c3cccs3)nnc2SCC(=O)NO)cc1	17
COc1ccc(NC(=O)C(Cl)=C(Cl)Cl)cn1	10
CC(=O)N(Cc1ccccc1)c1nc(-c2ccccc2)cs1	20
O=C(c1ccco1)N1N=C(c2ccc3nccnc3c2)CC1c1ccccc1 (centres undefined)	17
Oc1ccc(N2CCN(C(=S)NCc3ccccc3)CC2)cc1	15
Cc1ccccc1NC(=O)c1ccc(CN(c2ccccc2)S(=O)(=O)c2ccccc2)cc1	8
CCCCC(CC(O)COCC(C)C)C(=O)NN (centres undefined)	13
CCOC(=O)c1c(NC(C)=O)sc2c(O)c(Br)cc(Br)c12	19
CCOc1ccc(/C(O)=C2/C(=O)C(=O)N(CCN(C)C)C2c2ccccc2)cc1Cl (centres undefined)	20
CC[C@H](C)[C@@H]1NC(=O)c2cc([N+](=O)[O-])cc(F)c2OCC[C@@H](C(N)=O)NC(=O)[C@H](CCCCN)NC1=O	19
O=C(COC(=O)c1cccnc1Cl)Nc1cc(S(=O)(=O)N2CCCCC2)ccc1Cl	6
CCCn1c(=N)n(CC(=O)O)c2ccccc21	-3
Cc1ccsc1C1C(C#N)=C(N)N(N(C)C)C2=C1C(=O)CC(C)(C)C2 (centres undefined)	4
O=C(c1ccc(S(=O)(=O)Cc2ccccc2Cl)c([N+](=O)[O-])c1)N1CCN(c2ccccn2)CC1	7
CCOc1cc(/C=N/n2nnnc2N)ccc1OCc1c(C)no[n+]1[O-]	5
CCC(CC)NC(=O)CN(c1ccccc1OC)S(=O)(=O)c1cccs1	21
COc1cccc(C(=O)C[n+]2ccccc2/C=N/O)c1	6
COc1cc(/C=C2/C(=N)N3OC(C)=CC3=NC2=O)ccc1OC(=O)c1ccco1	5
C[C@@H]1CC=C[C@H]2[C@H]1C(=O)N(Cc1ccccc1)[C@H]2c1ccc(-c2ccc(F)cc2)cc1F	10
O=C(Nc1ccc(CN2CCS(=O)(=O)CC2)cc1)c1ccc(Cl)cc1	15
COc1ccc(S(=O)(=O)NCC2CCCN(C(=O)C3CCCC3)C2)cc1 (centres undefined)	8
CCOc1ccc(-n2cnc3sc4c(c3c2=O)CCCC4)cc1	19
COc1cc(C(=O)Nc2cccc(-c3nc4cc(C)ccc4o3)c2)cc(OC)c1OC	7
CCCOc1ccc(/C(CC)=N/NC(=O)C2(C)CC2(Br)Br)cc1 (centres undefined)	-16
Cc1ccc(S(=O)(=O)N(C)C)cc1NC(=O)COC(=O)c1sc2cc(Cl)ccc2c1Cl	19
CN(C)CCN1CC(O)=C(c2nc3ccccc3s2)C1=N	9
Cc1ccc(OCC(=O)NNC(=O)Cn2nnc(-c3ccccc3)n2)cc1	16
Cc1cc(NC(=O)C2CCCO2)ccc1Br (centres undefined)	29
